Bioassay records from PubChem.
Autofluor counter = counter-screen for toxin protease inhibitors: compound fluorescence | 360,000 compounds, 3.1% hits | compound autofluorescence counterscreen, microsphere flow cytometry; stronger effect = higher value | fluorescence intensity (test concentration not listed);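 active means at least 3 SD above the mean of all compounds, about 16000 in these data; inconclusive means too few beads counted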;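 further: 100 nL of 1 mM stock went into each well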
ugtP null kill = kills S. aureus RN4220 lacking UgtP | S. aureus RN4220 ugtP deletion, OD600 growth, 16 h; some inactives read as strong as hits | growth inhibition, % (concentration not given with the values) | 330,000 compounds, 0.54% hits | AID 1259309;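 active means z-score under -3 and OD600 up to 0.15 on both plates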;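 further: plate controls were untreated wells for no effect and antibiotic for full effect; wells of about 80 µL received 100 nL stock; the first replicate is given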
Sa RN4220 lethal = kills Staphylococcus aureus RN4220; S. aureus RN4220 growth, OD600, 16 h; inhibition, % (concentration not given with the values); 330,000 compounds, 0.33% hits; AID 1259311;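 active means z-score of -3 or lower and OD600 up to 0.18 on both plates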;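 further: plate controls were untreated cells for no effect and reference antibiotic for full effect; stock transfer was 100 nL into about 80 µL; one replicate is shown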
Mtb hypoxia inh = inhibitors of hypoxia-regulated fluorescent reporter in Mycobacterium tuberculosis; M. tuberculosis hypoxia-regulated fluorescent reporter, fluorescence; fluorescence inhibition, % (test concentration not listed); 300,000 compounds, 0.1% hits; AID 1159583;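 active means 35 to 45% if threefold the growth effect, above 45% if 1.5-fold the growth effect; inactive means the rest, general growth blockers included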;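 further: wells of about 50 µL received 100 nL stock; 0% = vehicle wells and 100% = reference inhibitor wells; whole bacteria with a GFP reporter of the hypoxia response; strong numbers were not always called active; many hits fall short of the cut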
PrP UTR inh = suppresses PrP 5' UTR mRNA reporter expression; cell-based PrP 5' UTR mRNA reporter, plate reader; inhibition, % (concentration not given with the values); 340,000 compounds, 0.35% hits; AID 488862;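 active means every replicate at 50% or more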;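 further: 0 = median of the neutral control wells; tested in H4 reporter cells; numbers are from one replicate; inactives centre near -14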
BJeLR lethal = kills HRASV12-expressing BJeLR cells. inhibition, % (concentration not given with the values). BJeLR (HRASV12) viability, CellTiter-Glo ATP luminescence, 48 h; reference of the scale not given here. 300,000 compounds, 0.17% hits;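 active means replicate mean above 50%; inconclusive means above 50% but judged a plate artefact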;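 further: 50 nL library stock added to about 25 µL; numbers are from one replicate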
Mtb hypoxia inh growth = further read-out of Mtb hypoxia inh, marked with its call; growth inhibition, %; measured here: M. tuberculosis growth (absorbance);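 0% = vehicle and 100% = reference antibiotic; read after six days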
Numbers without * were called inactive; u = inconclusive; x = not tested or not shown. Rows are unselected; 4% or so of the library scored in one or more.

SMILES | Autofluor counter | ugtP null kill | Sa RN4220 lethal | Mtb hypoxia inh | Mtb hypoxia inh growth | PrP UTR inh | BJeLR lethal
Cc1cccc(OCC(=O)NNC(=O)CCc2ccccc2)c1 | 2447 | 9 | 0.7 | -1 | 9 | -24 | 0
COc1ccc(OC)c(S(=O)(=O)Nc2cccc(-c3ccc(N4CCCCCC4)nn3)c2)c1 | 4653 | 5 | 6.9 | 0 | -7 | -18 | -1
O=C(Nc1ccccc1-c1nnc(SCc2ccccc2Cl)o1)c1ccccc1 | 11409 | -5 | -4.4 | -5 | 0 | -19 | 2
Cc1c(NC(=O)c2cc(-c3ccc(O)cc3)on2)c(=O)n(-c2ccccc2)n1C | 4470 | -2 | 1.0 | 0 | 16 | -15 | -4
N#Cc1cccc(CN2CCC(=O)N(C(CO)Cc3ccccc3)CC2)c1 (stereo not given) | x | 1 | 7.0 | 6 | 8 | x | x
Cc1oc2c(c1C(=O)c1ccccc1)C(=O)C(=O)c1ccccc1-2 | 2335 | 94* | 100* | x | x | -60 | 13
COc1ccc(CNC(=O)C2CSCCS2)cc1 (stereo not given) | 3233 | 15 | 4.6 | x | x | -27 | 0
O=S(=O)(NCCC1=CCCCC1)c1cccc(S(=O)(=O)N2CCOCC2)c1 | 3765 | 7 | 3.8 | 14 | 12 | -4 | 0
O=C(CN1CCN(Cc2ccccc2)CC1)Nc1ccc(Cl)cc1 | 4020 | 3 | -0.1 | 13 | -1 | -13 | 2
COc1ccc(N(C(=O)c2ccncc2)S(=O)(=O)c2cccc([N+](=O)[O-])c2)cc1 | 6483 | 0 | 3.1 | 2 | -1 | -19 | 13
COC(=O)c1ccccc1NC(=O)Nc1c(C)n(C)n(-c2ccccc2)c1=O | 3736 | 0 | 0.5 | -5 | 8 | -21 | 3
O=C(/C=C/c1ccc(Cl)c(C(F)(F)F)c1)N1CCN(c2ccccn2)CC1 | 2893 | 10 | 3.4 | 10 | 1 | -18 | 0
C=CCn1c(SCC(=O)N2CCN(C(=O)c3ccco3)CC2)nc2sc(CC)cc2c1=O | 3615 | 4 | -6.7 | x | x | -10 | -5
N#CN=C1CCCCCN1CC(N)=O | 9603 | 0 | 0.5 | -2 | -6 | -38 | 2
Nc1nc(CN2CCN(Cc3ccc4c(c3)OCO4)CC2)nc(Nc2ccccc2)n1 | 4323 | 8 | 4.4 | 7 | 5 | -4 | -12
COc1ccccc1NS(=O)(=O)c1ccc(C(=O)N2CCCCCCC2)cc1 | 6618 | -1 | 11 | 8 | -1 | -10 | x
O=C(NC(=S)NCCCN1CCOCC1)c1ccc(Br)cc1 | 4724 | 6 | 4.6 | 11 | 4 | -15 | -12
O=C(COc1ccc2ccccc2c1)N1CCN(C(=O)c2cccnc2)CC1 | 4294 | -10 | -2.5 | 4 | -1 | -32 | 6
CCOC(=O)C1=C(C)Nc2ccc(C)cc2S1 | 2631 | 6 | 5.1 | x | x | -23 | 15
Cc1cc(NC(=O)CCCSc2nc(-c3ccco3)cc(C(F)(F)F)n2)n(-c2ccccc2)n1 | 3086 | 1 | -9.6 | -8 | -1 | -30 | -6
COc1ccc(CNC(=O)c2ccc(N3CCC4(CC3)CC(c3ccc(Cl)cc3)=NO4)c([N+](=O)[O-])c2)cc1 | 3827 | 9 | -4.5 | -3 | 2 | -13 | 10
CN(Cc1cccnc1)C(=O)c1ccc(Cl)c(NS(=O)(=O)c2ccc(F)cc2)c1 | 6830 | 6 | 3.7 | -7 | 3 | -26 | x
Cc1oc(C(C)(C)C)cc1-c1cc(NC(=O)c2ccc([N+](=O)[O-])cc2)n[nH]1 | 6293 | 8 | 7.5 | 5 | -3 | -6 | -5
Cc1ccc(-n2c(=O)c3sccc3n(CC(=O)NC3CCCCC3)c2=O)cc1 | 4530 | 1 | 4.0 | 18 | 8 | -19 | 8
COc1ccccc1/C=N\NC(=O)c1c(C)nc2ccc(Cl)cn12 | 3909 | x | x | x | x | -17 | -2
CS(=O)(=O)N1CCN(c2ccc(NC(=O)C(c3ccccc3)c3ccccc3)cc2)CC1 | 9132 | 6 | 2.2 | -6 | -4 | -5 | 12
O=C(CC=NOCc1ccc([N+](=O)[O-])cc1)Nc1ccccc1 | x | 12 | -0.1 | -6 | 0 | x | x
CC(C)CNC(=O)c1cc(-c2ccco2)on1 | 11553 | 3 | 5.6 | 19 | 22 | -97 | 4
Cc1cc(C)cc(NS(=O)(=O)c2ccc3[nH]c(=O)[nH]c3c2)c1 | 4376 | -4 | 3.2 | 13 | 6 | -22 | -4
O=C1C(=O)c2ccccc2C([O-])=C1[n+]1ccccc1 | 3976 | 3 | 20 | 15 | 1 | 10 | -6
CCCCC#Cc1cncc(C(=O)N/N=C/c2cccc(OC)c2)c1 | 4515 | x | x | x | x | -11 | 4
CCc1noc(C)c1C(=O)Nc1nnc(C(CC)CC)s1 | 3171 | -2 | 1.8 | -8 | -9 | -8 | x
O=C(COC(=O)c1ccccc1[N+](=O)[O-])c1ccc2c(c1)OCO2 | 5703 | 3 | 3.0 | -2 | 11 | 12 | 8
Cc1onc(-c2ccccc2)c1C(=O)NNC(=S)NC(=O)c1ccc(Cl)cc1Cl | 1937 | 48 | 68 | 8 | 4 | -14 | 0
Cc1ccc(Cn2c(N/N=C/c3ccncc3)nc3c2c(=O)n(C)c(=O)n3C)cc1 | 4093 | x | x | x | x | -5 | -5
Nc1ccccc1C(=O)N1CCc2ccccc21 | 4207 | 8 | 5.1 | -4 | 2 | -22 | -1
Cc1cccc(NC(=S)N2CCN(S(=O)(=O)c3ccccc3)CC2)c1 | 5422 | 1 | -0.4 | 7 | 6 | -9 | x
Cc1cc(S(=O)(=O)Nc2c(C)ccc3nsnc23)ccc1F | 16194* | -2 | 3.1 | 15 | 0 | -11 | x
Cc1cc(Cl)ccc1OCC(=O)NCCOC(=O)Nc1sc(=S)n(C)c1C | 2564 | 13 | 5.8 | -2 | -16 | -9 | 2
CC1=C(C(=O)OC(C)C)C(c2cccnc2)C2=C(CCCC2=O)N1 (stereo not given) | 5671 | 6 | 0.3 | -3 | -13 | -7 | -4

Limited to BJeLR lethal and Mtb hypoxia inh (five entries from above):
structure	BJeLR lethal	Mtb hypoxia inh
Cc1cccc(NC(=S)N2CCN(S(=O)(=O)c3ccccc3)CC2)c1	x	7
Nc1ccccc1C(=O)N1CCc2ccccc21	-1	-4
Cc1cc(S(=O)(=O)Nc2c(C)ccc3nsnc23)ccc1F	x	15
O=C(COC(=O)c1ccccc1[N+](=O)[O-])c1ccc2c(c1)OCO2	8	-2
CCc1noc(C)c1C(=O)Nc1nnc(C(CC)CC)s1	x	-8

Later entries:
SMILES | Autofluor counter | ugtP null kill | Sa RN4220 lethal | Mtb hypoxia inh | Mtb hypoxia inh growth | PrP UTR inh | BJeLR lethal
COc1cc2sc3ccc(-c4ccc5[nH]ccc5c4)cc3c(=O)c2cc1OC | 3823 | -16 | -4.4 | 8 | 13 | -62 | 8
CC(C)(C)c1ccc(OC(=O)c2ccc3snnc3c2)cc1 | 2242 | -2 | 5.9 | 7 | -3 | -34 | 6
C/C(=N\NC(=O)c1ccc2c(c1)OCO2)c1ccco1 | 5091 | x | x | x | x | -40 | -2
COCCNCc1ccccc1[N+](=O)[O-] | 3917 | 2 | 3.1 | 13 | -2 | -14 | x
O=C(NCc1ccncc1)C1CCCCC1 | 6554 | 2 | 2.3 | 6 | 2 | -12 | -13
Cc1ccc2c(CC(=O)NCC(C)(C)N3CCOCC3)coc2c1 | 4002 | 2 | 11 | 8 | 8 | 15 | x
COc1ccc(CC(=O)OCc2nnc(C3COc4ccccc4O3)o2)cc1OC (stereo not given) | 4644 | 4 | 2.7 | 6 | 19 | -13 | -6
CCCn1c(Nc2ccccc2C)nc2ccccc21 | 9361 | 1 | 6.3 | -1 | 4 | -36 | 3
COC1C(C)=C(C)C(=O)N1Cc1ccccc1 (stereo not given) | 3958 | 5 | 4.8 | 7 | 1 | -12 | 3
Cc1oc(-c2ccccc2)nc1C(=O)OCC(=O)NC(C)c1ccccc1 (stereo not given) | 8712 | 1 | -1.1 | -4 | -2 | -18 | x
O=C1Nc2cc(C(=O)N3CCC4(CC3)OCCO4)ccc2S/C1=C\c1ccccc1 | 6338 | -5 | -3.0 | -11 | -13 | -19 | 4
CCCCNC(=O)N1CCC(CCC(=O)N(C)Cc2ccccc2)CC1 | 3559 | 14 | 5.7 | 15 | 14 | -15 | -4
Cc1ccc(S(=O)(=O)N2CCCN(c3nccc(C(F)(F)F)n3)CC2)cc1 | 6091 | 2 | 3.7 | 9 | 3 | -16 | -11
Cc1ccccc1N1C(=O)CN(Cc2sccc2C)C1=S | 8985 | 4 | 13 | 0 | 5 | -18 | -1
CCCCC(=O)Nc1ccc(NC(=S)NC(=O)c2ccco2)cc1OC | x | -2 | 8.0 | 11 | 4 | -28 | 2
O=C(NCc1nnc(SCC(=O)N2CCOCC2)o1)c1cccs1 | 2208 | 5 | 3.5 | 5 | -6 | -33 | 3
CCc1ccccc1NC(=O)NC(C)c1ccc2c(c1)OCO2 (stereo not given) | u | -3 | 0.0 | -3 | 2 | -10 | 13
CCCCn1c(N)c(N(CCC(C)C)C(=O)C2CC(=O)N(c3cccc(SC)c3)C2)c(=O)[nH]c1=O (stereo not given) | 6046 | -2 | -3.6 | -4 | 5 | -16 | 5
COc1ccc2[nH]c(C(=O)O)c(NS(=O)(=O)c3ccc(C)cc3C)c2c1 | 5455 | 7 | 7.3 | 4 | 5 | -2 | -1
CCCOc1ccc(OCCN2CCCC(C)C2)cc1 (stereo not given) | 2135 | 11 | 0.3 | 7 | 7 | -9 | 2

Some of the entries so far, with two lines to a compound:
Under each structure – Autofluor counter, ugtP null kill, Sa RN4220 lethal, Mtb hypoxia inh, Mtb hypoxia inh growth, PrP UTR inh, BJeLR lethal
Cc1ccc(S(=O)(=O)N2CCCN(c3nccc(C(F)(F)F)n3)CC2)cc1
→ 6091, 2, 3.7, 9, 3, -16, -11
Cc1ccccc1N1C(=O)CN(Cc2sccc2C)C1=S
→ 8985, 4, 13, 0, 5, -18, -1

The list goes on:
SMILES | Autofluor counter | ugtP null kill | Sa RN4220 lethal | Mtb hypoxia inh | Mtb hypoxia inh growth | PrP UTR inh | BJeLR lethal
CCCc1ccc(Oc2c(-c3ccc(O)c(C)c3O)n[nH]c2C)cc1 | x | 97* | 77 | 5 | 4 | -4 | 4
CCOC(=O)c1ccc(N=Nc2c(C)c(C#N)c(O)[nH]c2=O)cc1 | 2266 | x | x | x | x | -59 | 11
COc1ccc(-n2c(Cc3cccn3C)nnc2SCC(=O)Nc2nc(C)cs2)cc1 | 5770 | 7 | 7.1 | x | x | -13 | -2
COc1ccc(C(C)=O)cc1COC(=O)CCC(=O)c1cccs1 | x | 1 | 4.4 | 5 | 4 | -21 | x
Cc1ccc(C)c(S(=O)(=O)N2CCCC2CNC(=O)C(=O)NCc2cccs2)c1 (stereo not given) | u | 9 | 5.7 | 7 | 7 | -15 | 2
Cc1ccc(/C=C2\C(=O)NC(=S)N(c3cccc(F)c3)C2=O)o1 | 3869 | -2 | 2.4 | 13 | 5 | -25 | -1
Cc1cc(NC(=O)c2ccco2)c(=O)n(Cc2cccc(C(F)(F)F)c2)c1 | 4834 | 7 | 8.3 | 2 | -5 | -10 | -13
c1ccc(-c2nc(NCc3cccnc3)c3ccccc3n2)cc1 | 8068 | -15 | -0.9 | 1 | 2 | -36 | 3
CC1=C/C(=N\NC(=O)c2ccccc2)CC1 | 2145 | x | x | x | x | -22 | -6
C/C(=N\NC(=O)c1cc(C)oc1C)c1ccc2ccccc2c1 | 5487 | x | x | x | x | -42 | -4
Cc1ccc(C(=O)NNC(=O)CSc2n[nH]c(-c3cccnc3)n2)cc1 | 2139 | 6 | 4.0 | -6 | 0 | 6 | 9
COc1ccc(C2CC(=O)C=C(c3cccc(Cl)c3O)C2)cc1OC (stereo not given) | x | -13 | 4.8 | 11 | 10 | x | x
COc1ccc(NC(=O)c2ccc(Br)o2)cc1 | 2800 | 4 | 5.5 | 5 | 8 | -40 | 1
CSCC[C@H](N)C(=O)N1CCC(C(=O)N[C@@H](Cc2c[nH]c3ccccc23)C(=O)O)CC1 | 3107 | -1 | 0.2 | 1 | -2 | 2 | -17
CCCc1cc(=O)oc2c(CN3CCOCC3)c(O)ccc12 | 3025 | 6 | 7.1 | 3 | 6 | -16 | -1
CCOC(=O)c1[nH]c(C)c(C(=O)Nc2cc(OC)ccc2OC)c1C | 7893 | -1 | 3.6 | 5 | 5 | 24 | -10
COc1ccc(CC(=O)N2CC(=O)N(CCc3ccccc3)C(=O)C2)cc1 | 2766 | -3 | -0.3 | x | x | -2 | -5
